Compound activity deposited in PubChem by National Center for Advancing Translational Sciences (NCATS).
TRPV1 potentiator: enhances activation of the human vanilloid receptor TRPV1 | Q8NER1 | TRPV1-expressing cells, Fluo-8 calcium influx, capsaicin EC20 potentiation; host cell line not named in the record; control for the full effect not named in the record | potentiation, % at 8.33 µM | hit rate 0.02% among 320,000 | AID 540277; active means potentiation above 80%; inconclusive means 30% to 80%; inactive means below 30%; further: 0% is about no effect
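Fluo-8 calcium influx in TRPV1-expressing cells, kinetic read (ex 480/em 520 nm). Compound added and read 3 min for agonist activity, followed by capsaicin at EC20 final and 2 min further read for enhancement.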
TRPML1 ag: human mucolipin-1 channel agonism | TRPML1-expressing cells, Ca2+ dye fluorescence, FDSS; host cell line not named in the record; reference of the full effect not given here | hit rate 0.12% among 410,000 | AID 624414 | Q9GZU1 | activation, % (concentration not given with the values); in the data active = activation above about 50%; inconclusive = about 30% to 50%; inactive = below about 30%; further: 0% is about no effect; the text of the record puts the active cut at 80%
Target sequence (Q9GZU1 whole entry, looked up): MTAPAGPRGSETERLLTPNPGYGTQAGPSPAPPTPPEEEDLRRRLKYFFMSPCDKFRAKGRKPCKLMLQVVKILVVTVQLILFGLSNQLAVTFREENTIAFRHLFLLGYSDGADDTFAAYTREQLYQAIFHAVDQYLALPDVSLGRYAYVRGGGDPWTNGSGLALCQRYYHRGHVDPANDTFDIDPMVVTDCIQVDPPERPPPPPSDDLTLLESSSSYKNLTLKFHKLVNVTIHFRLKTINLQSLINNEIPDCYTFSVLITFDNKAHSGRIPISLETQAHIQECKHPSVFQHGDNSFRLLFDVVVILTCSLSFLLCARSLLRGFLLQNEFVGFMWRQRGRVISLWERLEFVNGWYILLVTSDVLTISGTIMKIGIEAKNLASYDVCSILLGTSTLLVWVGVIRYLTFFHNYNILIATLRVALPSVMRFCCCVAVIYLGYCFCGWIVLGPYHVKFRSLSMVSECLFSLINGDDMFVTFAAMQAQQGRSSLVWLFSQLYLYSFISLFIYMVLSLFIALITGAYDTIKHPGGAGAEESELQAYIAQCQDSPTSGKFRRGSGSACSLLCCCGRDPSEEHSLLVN
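Tetracycline-induced TRPML1-DL cells are seeded and incubated overnight before loading with a no-wash Ca2+ dye and quencher. Agonist activity is taken from the 110 s fluorescence read following compound pin-transfer on an FDSS, before EC80 54-4 challenge.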
Six1-Eya2 blk: inhibitors of human Six1/Eya2 interaction. Q15475+O00167. AlphaScreen GST-Six1/His-Eya2 binding, biochemical; stronger effect = lower value; control for the full effect not named in the record. activity change, % (no concentration beside the values). hit rate 0.56% among 360,000. AID 651725; in the data active = activity change below about -65%; inconclusive = about -30% to -65%; inactive = above about -30%; further: on the % scale 0 is the no-effect control and ±100 the full control effect; compound concentration not given in the record
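GST-Six1 + His-Eya2 (5X stock: 250/500 nM); Tris pH 8.0, 300 mM NaCl, 0.05% BSA, 0.02% Tween 20; GSH donor/Ni acceptor beads; 1 h 37 °C dark; AlphaScreen readout.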
D2 potentiator: potentiates the human D2 dopamine receptor allosterically | P14416 | DiscoveRx D2 beta-arrestin cells, luminescence, 90 min; 100% = 57 uM dopamine signal | potentiation, % (test concentration not listed) | hit rate 0.23% among 360,000; active = potentiation of 50% or more; inconclusive = 30% to 50%; inactive = 30% or less;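 further: compound concentration not given in the record; tested on top of an EC20 dose of dopamine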
Target sequence (P14416 whole entry, looked up): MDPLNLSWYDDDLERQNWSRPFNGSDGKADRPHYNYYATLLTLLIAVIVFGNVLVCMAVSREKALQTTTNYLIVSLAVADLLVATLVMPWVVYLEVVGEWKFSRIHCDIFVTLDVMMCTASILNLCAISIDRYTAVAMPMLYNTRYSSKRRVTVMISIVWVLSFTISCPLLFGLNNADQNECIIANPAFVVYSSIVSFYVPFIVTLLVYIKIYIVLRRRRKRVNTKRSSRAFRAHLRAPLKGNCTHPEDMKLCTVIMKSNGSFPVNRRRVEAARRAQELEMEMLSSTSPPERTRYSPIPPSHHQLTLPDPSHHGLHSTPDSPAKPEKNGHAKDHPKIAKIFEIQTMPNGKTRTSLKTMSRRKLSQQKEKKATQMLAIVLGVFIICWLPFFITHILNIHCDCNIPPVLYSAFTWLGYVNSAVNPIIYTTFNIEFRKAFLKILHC
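D2 cells co-treated with compound plus 50 nM dopamine (EC20) for 90 min at 37 deg C to detect potentiation. Beta-arrestin recruitment was read as enzyme-fragment luminescence after 1 h at ambient temperature. Full response was set by 57 uM dopamine.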
CtBP-E1A inh: blocks the CtBP interaction with E1A | activity change, % (test concentration not listed) | hit rate 0.49% among 340,000 | AID 651724 | AlphaScreen GST-E1A/His-CtBP binding, 1536-well; stronger effect = lower value; control for the full effect not named in the record; in the data active means activity change below about -65%; inconclusive means about -30% to -65%; inactive means above about -30%; further: on the % scale 0 is the no-effect control and ±100 the full control effect; compound concentration not given in the record
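Steps: dispense buffer (Tris pH 8.0, NaCl 300 mM, TCEP 1 mM, BSA, Tween 20); add 5X protein mix (GST-E1A, His-CtBP, 125 nM each); pin 23 nL compound; 2 h at 37 °C, dark; add 5X beads (50 ug/mL); 1 h; read.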
TRPML1 inh: inhibitors of human TRPML1 channel. Q9GZU1. TRPML1-inducible cells, Ca2+ dye fluorescence, FDSS; stronger effect = lower value; inhibition of EC80 agonist-evoked calcium signal. activity change, negative = inhibition, % (test concentration not listed). hit rate 0.02% among 390,000; in the data active means activity change below about -50%; inconclusive means about -30% to -50%; inactive means above about -30%;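 further: stimulus is agonist 54-4 at its EC80 concentration; on the % scale 0 is the no-effect control and ±100 the full control effect; compound concentration not given in the record; the text of the record puts the active cut at -80%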
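Tet-induced TRPML1-DL cells loaded with Ca8 no-wash calcium dye were read kinetically on FDSS. Compound addition was followed by EC80 agonist 54-4 (4 uM final); inhibition was read over 110 s.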
Numbers without * were called inactive; ? = inconclusive; nt = no result given.

no. | mol | TRPV1 potentiator | TRPML1 ag | Six1-Eya2 blk | D2 potentiator | CtBP-E1A inh | TRPML1 inh
1 | O=C(O)COc1cccc(/C=C2/SC(=S)N(Cc3ccccc3)C2=O)c1 | ? | -1.1 | -23 | 4 | -13 | 2
2 | O=C(Nc1cccs1)Nc1cccnc1Cl | -19 | 1.2 | -10 | 0 | 1 | 8
3 | O=S1(=O)CC(N2CCN(CC3CC3)CC2)CN1Cc1cn(Cc2ccccc2C(F)(F)F)nn1 (stereo unspecified) | nt | -0.6 | -1 | -5 | 2 | nt
4 | O=C(N/N=C/c1ccccc1F)NC1CCCCC1 | -5 | 3.4 | 1 | -17 | 2 | -25
5 | N[C@@H](CCC(=O)N[C@@H](CSN=O)C(=O)NCC(=O)O)C(=O)O | -5 | -0.8 | -8 | -4 | ? | 14
6 | Cc1cc(C)nc(N2CCCC(C(=O)Nc3ccc(F)cc3)C2)n1 (stereo unspecified) | -11 | 3.0 | -5 | -6 | 2 | 31
7 | COc1ccccc1C(=O)NCCC(=O)NNC(=O)Cn1ccc(C(F)(F)F)n1 | 2 | 0.9 | 5 | 16 | 4 | -13
8 | O=C(NN=C1CCN(Cc2ccccc2)CC1)C(O)c1ccccc1 (stereo unspecified) | 4 | -0.2 | 4 | -14 | -1 | -8
9 | CC(C)N1C(=O)CCC1C(=O)NCc1ccccc1Cl (stereo unspecified) | -5 | -0.7 | 1 | -5 | 1 | 4
10 | COc1ccc2c(c1)c(=O)oc1cc(OCC(=O)N3CCCC(C)C3)ccc12 (stereo unspecified) | 8 | 0.6 | -25 | 5 | -28 | -6
11 | Cc1ccccc1N(CC(=O)NC1CCCC1)C(=O)c1csnn1 | 1 | -0.3 | -17 | -17 | -18 | -22
12 | N#Cc1c(Nc2ccc(Cl)cc2)s[nH]c1=O | 21 | 0.4 | 3 | -8 | -8 | -4
13 | O=C(Nc1ccc2nc(C3CC3)n(Cc3ccccc3)c(=O)c2c1)C1CC1 | 8 | 1.2 | 27 | -7 | 19 | -7
14 | O=C(Cn1nc(C(=O)O)c2ccccc2c1=O)NCC1CCCO1 (stereo unspecified) | -1 | -0.4 | 7 | -26 | 1 | 27
15 | CC1=CN2C(=NC(=O)CC2(C)C(=O)N(CC(=O)NC2CCCC2)c2ccccc2C)C=C1 (stereo unspecified) | 8 | 1.8 | 3 | 16 | 5 | -8
16 | O=C(N/N=C/c1cc([N+](=O)[O-])ccc1O)C(O)(c1ccccc1)c1ccccc1 | 12 | 2.8 | ? | -9 | ? | 42
17 | COc1ccccc1CP(=O)(c1ccccc1)c1ccccc1 | -5 | 0.1 | 5 | -3 | 28 | 9
18 | CCN1CCN(CCc2nc3cc(NC(=O)COc4ccccc4)ccc3n2C)CC1 | -12 | -0.7 | 1 | -13 | 1 | 1
19 | COc1ccccc1C=NNc1ccc([N+](=O)[O-])cn1 | nt | 0.0 | 2 | -10 | 7 | 5
20 | CCCNC(=O)c1nn2c(C(F)(F)F)cc(-c3ccccc3)nc2c1Cl | 4 | -0.7 | -18 | -6 | -2 | 1
21 | Cc1ccc(S(=O)(=O)N(Cc2ccc(F)cc2)Cc2ccco2)cc1 | -14 | 6.6 | 27 | -3 | 18 | 10
22 | N#Cc1c[nH]n2c(=O)cc(Cc3ccccc3)nc12 | 16 | 0.5 | 0 | -9 | 1 | -1
23 | O=C(O)Cn1cc(/C=N/Nc2ccc([N+](=O)[O-])cn2)c2ccccc21 | 3 | 0.0 | -28 | -16 | 15 | 3
24 | O=C(COC(=O)Cc1ccc(Cl)cc1)Nc1ccccc1-c1ccccc1 | 13 | 5.4 | 21 | -12 | 25 | 9
25 | CC1(c2ccccc2)CC(C)(C)N2C(=O)Cc3cccc1c32 (stereo unspecified) | -4 | 1.2 | -3 | -5 | -3 | 33
26 | Cc1cc(C)c(C)c(S(=O)(=O)N2CCC(C(=O)N3CCN(c4ccc(F)cc4)CC3)CC2)c1C | nt | 0.3 | -15 | -7 | -10 | -3
27 | CC(C)N(Cc1nccn1C)C(=O)c1cc(COc2ccc(F)cc2Cl)on1 | 3 | -0.3 | -3 | -27 | 5 | 5
28 | O=C(CCN1CCOCC1)c1ccc2c(c1)OCCO2 | 0 | 0.6 | -1 | -23 | -1 | -1
29 | CCOCCOc1cccc(C(=O)NC(C)c2ccc3ccccc3c2)c1 (stereo unspecified) | -12 | -0.2 | 2 | -1 | -8 | -2
30 | COc1cccc(Cn2c(NCc3ccco3)nc3c2c(=O)n(C)c(=O)n3C)c1 | -13 | 0.8 | -15 | -2 | -3 | 3

Part of the list above, with values under each structure:
Values run as follows: TRPV1 potentiator, TRPML1 ag, Six1-Eya2 blk, D2 potentiator, CtBP-E1A inh, TRPML1 inh
26	Cc1cc(C)c(C)c(S(=O)(=O)N2CCC(C(=O)N3CCN(c4ccc(F)cc4)CC3)CC2)c1C
→ nt, 0.3, -15, -7, -10, -3
27	CC(C)N(Cc1nccn1C)C(=O)c1cc(COc2ccc(F)cc2Cl)on1
→ 3, -0.3, -3, -27, 5, 5
28	O=C(CCN1CCOCC1)c1ccc2c(c1)OCCO2
→ 0, 0.6, -1, -23, -1, -1
29	CCOCCOc1cccc(C(=O)NC(C)c2ccc3ccccc3c2)c1 (stereo unspecified)
→ -12, -0.2, 2, -1, -8, -2

Back to the main list with the two entries that preceded the break.
no. | mol | TRPV1 potentiator | TRPML1 ag | Six1-Eya2 blk | D2 potentiator | CtBP-E1A inh | TRPML1 inh
29 | CCOCCOc1cccc(C(=O)NC(C)c2ccc3ccccc3c2)c1 (stereo unspecified) | -12 | -0.2 | 2 | -1 | -8 | -2
30 | COc1cccc(Cn2c(NCc3ccco3)nc3c2c(=O)n(C)c(=O)n3C)c1 | -13 | 0.8 | -15 | -2 | -3 | 3
31 | COc1ccc(O)c(C(=O)c2cnc3c(c2)CN(C)C(=O)N3)c1 | 5 | 0.4 | -28 | 6 | nt | -9
32 | COc1ccc(-n2ncc(C(C)NS(=O)(=O)c3ccc(C)s3)c2C)cc1 (stereo unspecified) | 0 | 0.7 | 9 | -10 | 4 | -2
33 | Cc1ccc(NC(=O)C2CCN(S(=O)(=O)c3ccc4c(c3)NC(=O)CO4)CC2)cc1 | 7 | 0.9 | 0 | -10 | -11 | -4
34 | O=c1c(-c2ccc(O)cc2)coc2c([C@@H]3O[C@H](CO)[C@@H](O)[C@H](O)[C@H]3O)c(O)ccc12 | -9 | -0.2 | 9 | -4 | 3 | -4
35 | COc1ccc(C(C(=O)NC2CCCC2)N(CC2CCCO2)C(=O)Cn2nnc(-c3ccc(C)o3)n2)cc1 (stereo unspecified) | -2 | 0.0 | 0 | -8 | -7 | -3
36 | CCOc1ccc(NC(=O)C2CCCN(c3nc(C)cc(C)n3)C2)cc1 (stereo unspecified) | -9 | 0.4 | -2 | -5 | 6 | 2
37 | Cc1cccc(OCCN2C(=O)C(=O)c3cc(C)ccc32)c1 | -5 | 1.8 | -8 | -26 | -3 | 23
38 | CCC(/C=N/NC(=O)c1ccccc1F)CC | -16 | -0.8 | 4 | -18 | 0 | -10
39 | O=C(NCCCn1ccnc1)C(=O)NCC(c1cccnc1)N1CCN(c2ccc(F)cc2)CC1 (stereo unspecified) | 27 | -0.2 | -10 | -5 | 7 | 2
40 | CSCCC(NC(=O)c1ccc(Cl)cc1)C(=O)O (stereo unspecified) | 4 | -0.1 | 6 | -1 | -1 | -1
41 | COC(=O)[C@@H]1C[C@@]2(O)[C@@H](O)[C@@H](O)[C@@H](O)C[C@H]2N1Cc1ccc(C)s1 | 25 | -0.1 | -1 | -3 | 4 | -1
42 | O=C(N/C(=C\c1cccs1)C(=O)N1CCCCCC1)c1ccccc1 | -34 | 0.0 | 4 | -14 | 10 | -6
43 | O=C(CCN1C(=O)c2ccccc2C1=O)OCn1nnc2ccccc2c1=O | -16 | 1.7 | 0 | 1 | 1 | -15
44 | CN1C(C(=O)NCCc2cccs2)CC2Cn3c(nc4cc5ccccc5cc43)C21 (stereo unspecified) | 0 | -1.0 | -4 | -8 | -1 | -4
45 | Cc1ccc2nsnc2c1NC(=O)c1ccccc1[N+](=O)[O-] | -13 | 0.4 | 6 | -4 | -3 | 20
46 | Clc1ccc(-c2nnc(SCc3nc4ccccc4[nH]3)o2)c(Cl)c1 | 6 | 0.8 | 3 | -10 | -12 | -5
47 | Cc1c(C)c2c(OCC(=O)N[C@@H](C)C(=O)O)cc3c(c2oc1=O)CCC(C)(C)O3 | 2 | -0.5 | ? | -6 | 5 | -8
48 | COc1cc(OC)c(OC)cc1CN1CCCC(C(=O)N2CCCCC2)C1 (stereo unspecified) | 27 | -0.6 | 7 | -17 | 0 | 17
49 | COc1ccc2nc(NC(=O)CC3Oc4ccccc4NC3=O)sc2c1 (stereo unspecified) | -4 | 0.1 | 3 | -2 | -2 | -2
50 | COc1ccccc1NC(=S)N(Cc1ccccc1)Cc1ccccn1 | -9 | -2.1 | 0 | -7 | -9 | 12
51 | O=C(CSc1nc2ccc(NC(=O)CSc3nnnn3-c3ccccc3)cc2s1)Nc1ccccc1 | 1 | 0.3 | 3 | -24 | 17 | 18
52 | COc1cccc(C2C(C(=O)c3cc4cccc(OC)c4o3)=C(O)C(=O)N2c2cc(C)on2)c1OC (stereo unspecified) | 11 | 0.8 | 4 | 2 | -3 | -10
53 | COc1cccc(N=c2oc3cc(O)ccc3cc2C(=O)NCC2CCCO2)c1 (stereo unspecified) | -12 | 1.2 | -7 | -4 | -15 | 12
54 | Cc1cc(C(=O)NP(=O)(N2CCOCC2)N2CCOCC2)c(C)n1-c1ccc(N(C)C)cc1 | 13 | -0.2 | -19 | 2 | -4 | 6
55 | CN1/C(=C\C(=O)COc2ccc3c(c2)OCO3)C(C)(C)c2ccccc21 | -12 | 4.1 | ? | -21 | -23 | 25
56 | COc1ccc(C(=O)NN(c2ccccc2)c2ccccc2)cc1 | 1 | -0.5 | 2 | -12 | 8 | 8
57 | Cc1ccc(N2CCN(C3=NC(=O)/C(=C\c4cccs4)S3)CC2)cc1 | -9 | 3.5 | -21 | -18 | 20 | -2
58 | COc1ccc(C(=O)NCc2ccc3c(c2)OCO3)cc1S(=O)(=O)NCc1ccc(Cl)cc1 | -4 | 0.9 | 3 | -5 | -6 | -3

A different layout for some results above.
Sequence of screens: TRPV1 potentiator | TRPML1 ag | Six1-Eya2 blk | D2 potentiator | CtBP-E1A inh | TRPML1 inh
[41] COC(=O)[C@@H]1C[C@@]2(O)[C@@H](O)[C@@H](O)[C@@H](O)C[C@H]2N1Cc1ccc(C)s1
 : 25 | -0.1 | -1 | -3 | 4 | -1
[42] O=C(N/C(=C\c1cccs1)C(=O)N1CCCCCC1)c1ccccc1
 : -34 | 0.0 | 4 | -14 | 10 | -6
